High-throughput results deposited in PubChem by National Center for Advancing Translational Sciences (NCATS).
FEN1 inhibitor – blocks human flap endonuclease 1; P39748; Recombinant FEN1 flap cleavage, fluorescence, 15 min; Potency, µM (titrated, usually from 114 µM), without a hit: top-dose activity change, negative = inhibition, usual class: inhibitors; 390,000 compounds, 0.35% hits; note: nearly all actives have a fitted effect of over 65% in size
Target sequence (P39748 whole entry, looked up): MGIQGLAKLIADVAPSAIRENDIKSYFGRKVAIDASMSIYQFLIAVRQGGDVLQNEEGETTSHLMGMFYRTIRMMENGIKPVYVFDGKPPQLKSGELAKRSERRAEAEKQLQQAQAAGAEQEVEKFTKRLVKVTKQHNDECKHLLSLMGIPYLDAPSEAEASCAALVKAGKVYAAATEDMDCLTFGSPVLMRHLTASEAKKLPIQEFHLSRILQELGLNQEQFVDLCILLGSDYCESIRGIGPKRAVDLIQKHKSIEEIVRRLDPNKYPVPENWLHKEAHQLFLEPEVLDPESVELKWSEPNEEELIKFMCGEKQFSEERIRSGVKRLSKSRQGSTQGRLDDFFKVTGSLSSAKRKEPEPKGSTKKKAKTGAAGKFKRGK
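Steps: FEN1 (10 nM) dispensed; compound added by pin tool; 15 min at room temperature; substrate added to 50 nM final; reads at 0 min and 15 min; data normalized and fitted (four-parameter Hill).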
N370S GC – inhibits or activates N370S mutant glucocerebrosidase. N370S GC spleen homogenate, 4MU-glucoside fluorescence. Potency, µM (doses to about 59.4 µM), inactives show at the top dose activity change, negative = inhibition, usual class: inhibitors. 330,000 compounds, 0.092% hits. AID 2101;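 note: 0% = full enzyme activity and -100% = no enzyme basal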
An asterisk follows results filed as active; ? = inconclusive; nt = no result given; & = joins results of further samples. Calls come from the whole dose curve; as a rule, active = well fitted curve in the direction sought with a large enough effect; inconclusive = small, poorly fitted or top-dose-only effect, or another doubt; inactive = no such curve, though single readings can be large; an effect the other way counts as inactive or inconclusive. Unless noted, % is set by controls: 0 for no effect and ±100 for the full control effect; potency is the fitted concentration of half-maximal effect.

| No. | Molecule | FEN1 inhibitor | N370S GC |
| --- | --- | --- | --- |
| 1 | COc1ccc(NC(=O)C(Cc2ccccc2)n2cccc2)cc1 (centres undefined) | -6.3% | 2.7% |
| 2 | COc1ccc(CC(=O)Nc2cccc(Cl)c2C)cc1S(=O)(=O)N1CCOCC1 | 4.2% | nt |
| 3 | Cc1cnc(CNc2ncncc2-c2ccc(C(=O)N(C)C)cc2)cn1 | nt | -3.9% |
| 4 | O=C(O)C[C@@H]1NC(=O)[C@H](Cc2ccccc2)NC1=O | nt | 6.4% |
| 5 | CC(C)CCOP(=O)(c1ccc(N(C)C)cc1)C(Nc1ccccc1)c1ccc(N(C)C)cc1 (centres undefined) | 1.5% | -0.5% |
| 6 | CCC1(C(=O)OC)NC(c2ccccc2OC)C2C(=O)N(C)C(=O)C21 (centres undefined) | -7.6% | 1.4% |
| 7 | Cc1cccc2nc(CNc3ccc(F)cc3)cn12 | -10.5% | 3.2% |
| 8 | Cc1ccc(C)c(C(=O)NCCN(C)C)c1 | -15.0% | 3.6% |
| 9 | CC(=O)N1c2ccc(S(=O)(=O)NCC3CCC(C(=O)N4CCCCC4)CC3)cc2CC1C (centres undefined) | -13.9% | -19.4% |
| 10 | O=C(CCn1nc(-c2ccc(Cl)cc2)ccc1=O)N1CCN(c2ccccn2)CC1 | -4.6% | -7.7% |
| 11 | Cc1ccc(-n2ncc3c2CCCC3NC(=O)CCc2cnn(C)c2)cc1C (centres undefined) | 10.2% | 1.5% |
| 12 | OC1(c2cccc(C(F)(F)F)c2)CCN(c2ncnc3c2[nH]c2ccc(F)cc23)CC1 | 0.2% | -21.0% |
| 13 | COC(=O)C(C(=O)Nc1ccccc1C)C1CCCCCC1 (centres undefined) | -10.3% | 19.9% |
| 14 | Cc1cccc(C(=O)N(Cc2ccccc2F)C2CCS(=O)(=O)C2)c1 (centres undefined) | -4.5% | nt |
| 15 | CCN(Cc1nc(-c2cccc(Cl)c2)no1)CC1CCCO1 (centres undefined) | -0.8% | 0.9% |
| 16 | O=C(COc1ccccc1)Nc1nnc(C23CC4CC(CC(C4)C2)C3)s1 | 17.5% | 11.3% |
| 17 | Cn1c(=O)cc(OCCCC(=O)NCCN2CCN(c3ccccc3F)CC2)c2ccccc21 | 0.8% | 0.0% |
| 18 | CCCC(c1nnnn1CCc1ccccc1)N1CCC(C(N)=O)CC1 (centres undefined) | -5.6% | 3.6% |
| 19 | COC(=O)c1[nH]c2cc(OC)ccc2c1NC(=O)c1ccc2c(c1)OCO2 | -9.9% | 1.8% |
| 20 | COc1cccc(N2CC34C=CC(O3)C(C(=O)O)C4C2=O)c1 (centres undefined) | -10.7% | -21.3% |
| 21 | N#Cc1ccc(NC(=O)Nc2ccc(Oc3ccc(NC(=O)Nc4ccc(C#N)cc4)cc3)cc2)cc1 | -4.8% | -9.0% |
| 22 | c1ccc(C2=Nn3c(nnc3-c3cccnc3)SC2)cc1 | -2.9% | 2.3% |
| 23 | C/C(=N\Nc1ncc(Cl)cc1Cl)c1ccc(S(=O)(=O)NCc2ccco2)cc1 | -3.7% | -2.0% |
| 24 | O=C(c1ccccc1)c1nn(-c2ccc(Cl)cc2)c(=O)cc1C(F)(F)F | -17.0% | 24.6% |

Ordered by the number under N370S GC (largest number first): some entries from above.
entry | SMILES | N370S GC
18 | CCCC(c1nnnn1CCc1ccccc1)N1CCC(C(N)=O)CC1 (centres undefined) | 3.6%
23 | C/C(=N\Nc1ncc(Cl)cc1Cl)c1ccc(S(=O)(=O)NCc2ccco2)cc1 | -2.0%
21 | N#Cc1ccc(NC(=O)Nc2ccc(Oc3ccc(NC(=O)Nc4ccc(C#N)cc4)cc3)cc2)cc1 | -9.0%

Returning to the listing, repeating the 7 entries before the break.
| No. | Molecule | FEN1 inhibitor | N370S GC |
| --- | --- | --- | --- |
| 18 | CCCC(c1nnnn1CCc1ccccc1)N1CCC(C(N)=O)CC1 (centres undefined) | -5.6% | 3.6% |
| 19 | COC(=O)c1[nH]c2cc(OC)ccc2c1NC(=O)c1ccc2c(c1)OCO2 | -9.9% | 1.8% |
| 20 | COc1cccc(N2CC34C=CC(O3)C(C(=O)O)C4C2=O)c1 (centres undefined) | -10.7% | -21.3% |
| 21 | N#Cc1ccc(NC(=O)Nc2ccc(Oc3ccc(NC(=O)Nc4ccc(C#N)cc4)cc3)cc2)cc1 | -4.8% | -9.0% |
| 22 | c1ccc(C2=Nn3c(nnc3-c3cccnc3)SC2)cc1 | -2.9% | 2.3% |
| 23 | C/C(=N\Nc1ncc(Cl)cc1Cl)c1ccc(S(=O)(=O)NCc2ccco2)cc1 | -3.7% | -2.0% |
| 24 | O=C(c1ccccc1)c1nn(-c2ccc(Cl)cc2)c(=O)cc1C(F)(F)F | -17.0% | 24.6% |
| 25 | COCCCNC(=O)C(=O)NC1CCCCC1C (centres undefined) | -5.7% | -20.1% |
| 26 | COc1ccc(N2CCN(Cc3cc(=O)oc4ccc(C)cc34)CC2)cc1 | -21.2% | -13.3% |
| 27 | CC1(C)N=C(SCc2ccccc2Cl)c2ccccc2N1 | -20.2% | nt |
| 28 | O=C(NCCCN1CCCCC1)C1CC(=O)N(CCc2ccccc2)C1 (centres undefined) | 16.7% | -1.4% |
| 29 | Cn1c(=O)cc(OCCCC(=O)NCc2cccnc2)c2ccccc21 | 2.0% | -3.0% |
| 30 | Cc1ccc2[nH]c3nc(SCCN4CCOCC4)nnc3c2c1 | -1.2% | 2.3% |
| 31 | O=C(COC(=O)c1cccc(Br)c1)NCCNC(=O)COC(=O)c1cccc(Br)c1 | 16.1% | -0.1% |
| 32 | CCn1c(COc2ccccc2C)nnc1SCC(=O)N1CCC(C)CC1 | 0.8% | -12.6% |
| 33 | COc1cccc(C2/C(=C(\O)c3ccc4c(c3)OCCO4)C(=O)C(=O)N2CC2CCCO2)c1 (centres undefined) | 2.1% | -6.5% |
| 34 | O=C(Nc1ccccc1C(=O)NCC1CCCO1)c1ccccc1 (centres undefined) | -3.7% | -16.4% |
| 35 | O=C(Nc1ccc(C(=O)N2CCN(c3ccccc3F)CC2)cc1)c1nsc2ccccc12 | -3.7% | nt |
| 36 | C=CCn1c(SCC(=O)Nc2ccc(F)cc2F)nc2c([nH]c3ccccc32)c1=O | 3.0% | -10.0% |
| 37 | Cc1c(C(=O)N2CC(C(=O)N3CCCCC3)Oc3ccccc32)oc2ccccc12 (centres undefined) | -8.8% | 5.9% |
| 38 | CCN(CC)CCCNC(=O)c1ccccc1C | 8.1% | 1.6% |
| 39 | CCOc1ccccc1CNS(=O)(=O)c1cc(-c2onc(C)c2C)ccc1OC | -1.5% | nt |
| 40 | O=C(Nc1nc2nccc(-c3ccccc3)n2n1)C(Cl)(Cl)Cl | 0.0% | 5.3% |
| 41 | COc1ccc(CC(=O)Nc2ccc(-c3nnc(-c4ccccc4)o3)cc2)cc1 | -5.5% | -3.5% |
| 42 | CCC(=O)N1c2ccc(S(=O)(=O)CCC(=O)Nc3ccc(OC)cc3OC)cc2CC1C (centres undefined) | -3.7%&-3.2% | 22.9% |
| 43 | CCOc1ccc(Cc2noc3c2C(=O)CCC3)cc1OCC | -6.4% | 17.3% |
| 44 | COc1ccc(-c2ccccc2)cc1NCc1ccccc1C | 11.3% | 3.6% |
| 45 | Nc1nc(SCC(=O)Nc2cc(-c3ccccc3)nn2-c2ccccc2)n[nH]1 | 3.7% | -4.7% |
| 46 | Clc1ccc(Nc2c(-c3cccs3)nc3ccc(Cl)cn23)cc1 | -12.7% | nt |
| 47 | COc1ccc(OC)c(C(=O)CSc2nnc(Cc3cccs3)n2CCc2ccccc2)c1 | -20.2% | -20.4% |
| 48 | COc1ccccc1NC(=O)CCC(=O)OCC(=O)c1ccc(C)c([N+](=O)[O-])c1 | -2.6% | 1.4% |

Two compounds drawn at random from those above, as already listed:
| No. | Molecule | FEN1 inhibitor | N370S GC |
| --- | --- | --- | --- |
| 45 | Nc1nc(SCC(=O)Nc2cc(-c3ccccc3)nn2-c2ccccc2)n[nH]1 | 3.7% | -4.7% |
| 41 | COc1ccc(CC(=O)Nc2ccc(-c3nnc(-c4ccccc4)o3)cc2)cc1 | -5.5% | -3.5% |

An excerpt from above in order of molecular weight, lowest first:
| No. | Molecule | FEN1 inhibitor | N370S GC |
| --- | --- | --- | --- |
| 44 | COc1ccc(-c2ccccc2)cc1NCc1ccccc1C | 11.3% | 3.6% |
| 43 | CCOc1ccc(Cc2noc3c2C(=O)CCC3)cc1OCC | -6.4% | 17.3% |
| 41 | COc1ccc(CC(=O)Nc2ccc(-c3nnc(-c4ccccc4)o3)cc2)cc1 | -5.5% | -3.5% |
| 45 | Nc1nc(SCC(=O)Nc2cc(-c3ccccc3)nn2-c2ccccc2)n[nH]1 | 3.7% | -4.7% |
| 48 | COc1ccccc1NC(=O)CCC(=O)OCC(=O)c1ccc(C)c([N+](=O)[O-])c1 | -2.6% | 1.4% |
| 47 | COc1ccc(OC)c(C(=O)CSc2nnc(Cc3cccs3)n2CCc2ccccc2)c1 | -20.2% | -20.4% |

The list goes on.
| No. | Molecule | FEN1 inhibitor | N370S GC |
| --- | --- | --- | --- |
| 49 | CCN1CCc2c(sc(NC(=O)c3ccc(S(=O)(=O)N(CCOC)CCOC)cc3)c2C(N)=O)C1 | -2.1% | nt |
| 50 | CCOc1cccc2sc(N3CCN(C(=O)C4CC4)CC3)nc12 | 13.2% | nt |
| 51 | CCN1CCCC1CNC(=O)c1cc2c(=O)n(C)c3ccccc3c2n1C (centres undefined) | ? | -0.2% |
| 52 | COc1ccccc1NC(=O)c1sc2nc(-c3cc4ccccc4oc3=O)[nH]c(=O)c2c1C | 15.1% | nt |
| 53 | COC(=O)c1ccc(N2CCN(C(=O)c3ccccc3)CC2)c(NC(C)=O)c1 | -0.8% | -6.9% |
| 54 | O=C(Nc1ccccc1F)C1CCN(C(=O)Cc2ccccc2)CC1 | -7.3% | 22.6% |
| 55 | CCC(CC)C(=O)Nc1nnc(S(=O)(=O)N2c3ccccc3CC2C)s1 (centres undefined) | -4.1%&14.9% | -24.4% |
| 56 | O=C(COCc1cc(-c2cccs2)on1)NCc1ccc(F)cc1 | 14.7% | nt |
| 57 | Cc1cccc(NC(=O)C2CCN(c3nnc(-n4c(C)ccc4C)s3)CC2)c1C | -5.4% | nt |
| 58 | O=C(NOCc1ccccc1)c1ccccc1 | -1.1% | -2.4% |

This is a subset, and most or all hits are left out here.
